# D2 PAM – potentiates the human D2 dopamine receptor allosterically. DiscoveRx D2 beta-arrestin cells, luminescence, 90 min; 100% = 57 uM dopamine signal. actives 0.23% (n = 360,000). AID 624464. P14416. potentiation, % (test concentration not listed); active = potentiation of 50% or more; inconclusive = 30% to 50%; inactive = 30% or less;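 further: compound concentration not given in the record; tested on top of an EC20 dose of dopamine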
# Target sequence (P14416 whole entry, looked up): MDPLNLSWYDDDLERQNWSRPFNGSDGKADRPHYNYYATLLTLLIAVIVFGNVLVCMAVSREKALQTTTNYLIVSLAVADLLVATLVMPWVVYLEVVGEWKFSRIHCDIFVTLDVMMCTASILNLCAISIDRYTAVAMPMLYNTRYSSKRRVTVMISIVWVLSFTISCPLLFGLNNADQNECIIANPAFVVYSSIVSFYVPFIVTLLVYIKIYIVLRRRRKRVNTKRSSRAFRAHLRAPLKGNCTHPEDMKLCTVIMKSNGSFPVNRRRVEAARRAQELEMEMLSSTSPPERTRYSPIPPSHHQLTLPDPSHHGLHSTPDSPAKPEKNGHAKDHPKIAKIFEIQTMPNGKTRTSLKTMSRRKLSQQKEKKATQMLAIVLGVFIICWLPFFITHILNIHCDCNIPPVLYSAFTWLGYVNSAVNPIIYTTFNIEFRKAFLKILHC
#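 PathHunter D2 cells, attached overnight at 37 deg C, received compound in DMSO plus dopamine at EC20 (50 nM final) for 90 min at 37 deg C. Beta-arrestin recruitment was read as luminescence after 1 h with detection reagent at ambient temperature.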
# TRPML1 agonist – agonists of human TRPML1 channel; Q9GZU1; TRPML1-expressing cells, Ca2+ dye fluorescence, FDSS; host cell line not named in the record; reference of the full effect not given here; activation, % (no concentration beside the values); actives 0.12% (n = 410,000); AID 624414; in the data active = activation above about 50%; inconclusive = about 30% to 50%; inactive = below about 30%; further: 0% is about no effect; the text of the record puts the active cut at 80%
# Target sequence (Q9GZU1 whole entry, looked up): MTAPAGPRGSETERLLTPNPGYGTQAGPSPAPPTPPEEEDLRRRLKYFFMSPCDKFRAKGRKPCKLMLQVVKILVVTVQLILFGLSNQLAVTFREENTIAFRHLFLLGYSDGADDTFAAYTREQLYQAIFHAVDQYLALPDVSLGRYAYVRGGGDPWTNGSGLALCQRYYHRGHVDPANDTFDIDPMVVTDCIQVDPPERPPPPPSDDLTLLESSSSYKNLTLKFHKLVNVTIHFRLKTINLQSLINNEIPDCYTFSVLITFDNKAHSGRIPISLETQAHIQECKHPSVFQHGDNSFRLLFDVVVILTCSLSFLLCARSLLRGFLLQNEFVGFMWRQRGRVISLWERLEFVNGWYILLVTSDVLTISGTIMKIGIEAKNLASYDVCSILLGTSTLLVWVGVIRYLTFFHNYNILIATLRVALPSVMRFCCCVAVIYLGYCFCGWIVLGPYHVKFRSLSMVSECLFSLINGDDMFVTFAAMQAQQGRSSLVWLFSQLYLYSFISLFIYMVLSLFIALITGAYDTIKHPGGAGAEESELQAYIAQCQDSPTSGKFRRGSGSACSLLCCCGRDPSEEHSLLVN
#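 Tet-induced TRPML1-DL cells, 1,500 per well, cultured overnight, were loaded with a no-wash Ca2+ dye for 45–90 min. Calcium fluorescence was recorded on the FDSS for 110 s after compound addition, before the EC80 agonist (4 uM 54-4) was added.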
# D2 ag – human D2 receptor agonism in beta-arrestin assay | activation, % (no concentration beside the values) | DiscoveRx PathHunter D2 beta-arrestin, luminescence, 90 min; 100% = 57 uM dopamine signal | AID 624465 | actives 0.084% (n = 360,000) | P14416; in the data active = activation above about 40%; inconclusive = about 15% to 40%; inactive = below about 15%; further: compound concentration not given in the record; the text of the record calls up to 30% inactive
#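 Agonist mode: compounds alone added to overnight-plated D2 PathHunter cells for 90 min at 37 C, with 57 uM final dopamine (EC100) defining full response. Beta-arrestin recruitment detected by chemiluminescent reagent, read after 1 h at ambient temperature.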
# Six1-Eya2 blk – inhibitors of human Six1/Eya2 interaction; Q15475+O00167; AlphaScreen GST-Six1/His-Eya2 binding, biochemical; hits give low values; control for the full effect not named in the record; activity change, % (concentration not given with the values); actives 0.56% (n = 360,000); in the data active = activity change below about -65%; inconclusive = about -30% to -65%; inactive = above about -30%; further: on the % scale 0 is the no-effect control and ±100 the full control effect
#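 GST-Six1 + His-Eya2 (5X stock: 250/500 nM); Tris pH 8.0, 300 mM NaCl, 0.05% BSA, 0.02% Tween 20; GSH donor/Ni acceptor beads; 1 h 37 °C dark; AlphaScreen readout.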
# CtBP-E1A inh – CtBP/E1A binding inhibition | AlphaScreen GST-E1A/His-CtBP binding, 1536-well; hits give low values; control for the full effect not named in the record | activity change, % (test concentration not listed) | actives 0.49% (n = 340,000) | AID 651724; in the data active means activity change below about -65%; inconclusive means about -30% to -65%; inactive means above about -30%; further: on the % scale 0 is the no-effect control and ±100 the full control effect; compound concentration not given in the record
#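 GST-E1A and His-tagged CtBP (125 nM each as 5X stock) were preincubated with pin-transferred compound for 2 h at 37 °C in the dark, then glutathione donor and nickel acceptor beads were added for 1 h before AlphaScreen reading.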
# PINK1 modulator – changes PINK1 expression; PINK1 immunofluorescence, high-content cytometry, 24 h; Potency, µM (series often up to 76.6 µM), without a hit: top-dose activation (PINK1 increase), usual class: activators; actives 0.2% (n = 410,000); AID 624263; active = well fitted activation curve with a large enough effect; inconclusive = small, poorly fitted or top-dose-only effect; inactive = flat fitted curve, though single readings scatter; cell line not stated here;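 further: potency means the concentration at half of the fitted maximal effect; % of control where 0% means no effect; nearly all actives have a fitted effect of over 65% in size; a mitochondrial uncoupler was the plate control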
#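 Fluorescence from anti-PINK1 antibody, together with nuclear and cell stains, was scanned on a laser-scanning cytometer. Before staining, stable-line cells were incubated 24 hours with compounds at 5 concentrations; primary antibody 12 h at 10 degrees C.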
# * = called active by the depositor; ? = inconclusive; . = not tested or not shown; & = joins results of further samples; [ ] = dose if it differs, or a comment.
mol,D2 PAM,TRPML1 agonist,D2 ag,Six1-Eya2 blk,CtBP-E1A inh,PINK1 modulator
O=C(Cn1ccc(NC(=O)OCc2ccccc2)nc1=O)NCc1nc2ccccc2[nH]1,-7,-0.3,-2.3,-9,-8,0.9%
O=C(N/N=C(\c1ccccc1)c1cccnc1)c1cccc(F)c1,-20,-0.2,-13,-80*,-3,-1.5%
CCOC(=O)C1CCC(=O)C1 (configuration not stated),1,-0.6,4.4,5,4,2.4%
O=C(NC1CC1)c1cc2c(s1)CS(=O)(=O)C2,-2,-0.4,-3.5,-2,-1,6.7%
Cc1cc(C)cc(-n2c(C)c3c(C)nnc(C)c3c2C)c1,-10,0.2,-1.8,6,6,?
CC1CCCCC12NC(=O)N(CC(=O)N1CCN(S(=O)(=O)c3ccc4c(c3)CCC4)CC1)C2=O (configuration not stated),-10,0.1,-4.2,-1,0,-0.8%
O=c1cc(O)nc(SCc2ccccc2Cl)[nH]1,-8,0.2,-1.4,-13,-5,2.6%
CCOc1ccc(N=C2NC(=O)S/C2=C\c2ccc(N(C)C)cc2)cc1,-5,15,-3.8,-3,-9,?
COc1ccc(/C=C/c2nc(C)c(-c3ccccc3)c(=O)[nH]2)cc1OC,-1,0.3,-3.9,-6,7,15%
O=C(O)Cn1c2ccccc2c2nc3ccccc3nc21,-12,-0.8,-8.9,-1,1,1.1%
COc1ccc(/C=N/NC(=O)COc2ccc3ccccc3c2)c(C(=O)O)c1OC,-2,0.1,-6.7,-13,1,-0.1%
C=CCn1c(N)c(C(=O)OCC(C)C)c2nc3ccccc3nc21,-25,1.9,-15,-7,-3,-1.1%
Cc1cc(Cl)ccc1NC(=S)NCCc1ccc(Cl)cc1,-14,1.0,-4.7,-9,-23,?
CN(C)S(=O)(=O)c1cccc(C(=O)Nc2cc3c(cc2C(=O)O)OCCCO3)c1,0,1.7,-11,-1,-2,6.7%
COc1ccccc1-c1ccc2nnc(SC)n2n1,-10,1.8,-4.8,6,.,1.6%
Cc1ccc(/C=C2/SC(=S)N(CCCC(=O)Nc3ccc(O)cc3)C2=O)cc1,0,-0.6,8.7,-11,-16,7.5%
CC(C)C[C@@H](CO)N1CCNCCC1=O,-1,0.4&-0.4,-1.7,4,9,0.5%
O=C(CN(CCN1CCOCC1)C(=O)Cn1nnc(-c2ccc(F)cc2)n1)NC1CCCCC1,-6,0.3,-4.0,0,4,-1.1%[38.3 µM]
CCOC(=O)N1CCN(C(=O)CN2C(=O)NC(c3ccccc3)(c3ccccc3)C2=O)CC1,3,0.6,0.9,1,0,5.4%
O=c1cc(CSc2ccc(S(=O)(=O)N3CCCCC3)cn2)nc2sccn12,0,-0.9,-1.9,-4,-1,-1.7%
c1ccc(-c2cc3ccccc3cn2)cc1,-8,1.0,-1.8,23,23,4.4%
O=C(NCCN1CCOCC1)c1ccc2c(c1)N(Cc1c(F)cccc1Cl)C(=O)c1ccccc1S2,-1,3.3,1.0,-12,-2,-1.3%
CCCCC[C@H]1CN(C2CCCCC2)C(=O)[C@@H]1CC(=O)NCc1ccccc1,-18,-0.3&0.0,0.2,3,2,6.2%
O=C1CN(C(=O)c2ccccn2)c2ccccc2N1,-6,-0.5,-3.7,0,0,-1.9%
COc1ccc2cc(-c3[nH]ncc3CN3CCCC3c3nonc3C)ccc2c1 (configuration not stated),-12,0.2,0.0,-4,-3,3.8%
O=C(Cc1ccccc1)Nc1ccc(N2CCCCC2)cc1,-6,2.7,4.6,-10,-23,-2.0%
O=C1NC[C@@H](CCCCN2C[C@H](Cc3ccccc3)N(CCc3ccc(O)cc3)C(=O)C2=O)N(CCc2ccccc2)C1=O,.,-0.5,.,-3,-5,0.4%
CCCCn1nnnc1C1(C)CCC(=O)N1Cc1cccnc1 (configuration not stated),.,-0.1,.,8,5,4.4%
CCc1ccc(NC(=O)C2CCCN(S(=O)(=O)c3ccc4c(c3)CC(C)N4C(C)=O)C2)cc1 (configuration not stated),1,-0.5,7.8,-4,-1,2.6%
CCc1ccc(-c2cnc3nc[nH]c(=O)c3n2)cc1,-2,-0.2,2.5,-7,0,2.1%
CCCCNC(=O)c1ccc(S(=O)(=O)c2ccc(Cl)cc2)c(NC(C)=O)c1,-8,0.4,-1.0,1,1,2.6%[38.3 µM]
Cc1cccn2c(=O)nc(SCC(=O)N3CCC(C)CC3)nc12,-2,0.6,-1.3,-8,1,-1.2%
CN1CCN(C(=O)C2=C[C@H](C(C)(C)C)C[C@H](OCCCCO)O2)CC1,-5,0.1,-2.6,5,2,-0.1%
CCn1c(SCC(=O)Nc2ccc(Cl)cc2)nc2nc3c(cc2c1=O)CCCC3,-1,0.3,0.7,10,-18,2.2%
CC(=O)NC(CC(=O)Nc1cccc(S(=O)(=O)N2CCOCC2)c1)c1ccccc1 (configuration not stated),-68,0.8,-2.8,-3,-2,-3.5%
NC(=O)CC(NC(=O)c1ccccc1)c1ccc(NCCN2CCOCC2)c([N+](=O)[O-])c1 (configuration not stated),-8,-0.3,-3.3,23,-7,1.1%
COCCSc1ccccc1C(=O)Nc1ccncc1,-6,0.5,2.8,6,4,-1.0%[38.3 µM]
CCOc1ccc(Nc2nc(Cc3nnc(SCC(N)=O)o3)cs2)cc1,22,-0.3,-2.9,-12,-21,1.7%[38.3 µM]
CC(Oc1ccc(Br)cc1Br)C(=O)Nc1cccnc1Cl (configuration not stated),0,2.1,2.3,17,18,6.6%
Cc1cn(C(=O)CN2C(=O)c3ccccc3C2=O)c(C)n1,-6,0.4,-4.3,1,-24,-0.4%
Cc1ccc(S(=O)(=O)NCCC(=O)NNC(=O)COc2ccccc2Cl)cc1C,2,0.5,-2.6,0,.,1.4%
N#CC1=C(N)N(c2ccccc2)C2=C(C(=O)CCC2)C1c1cccs1 (configuration not stated),7,2.7,4.4,-14,-25,6.7%
COc1cc(/C=N/NC(=O)c2cccnc2)ccc1OCC(=O)Nc1ccc(C)cc1,9,-1.1,4.8,-1,-1,0.4%
O=C1C(=O)N(C2CCS(=O)(=O)C2)C(c2cccc(O)c2)/C1=C(/O)c1ccc(Cl)cc1 (configuration not stated),4,-0.3,-2.6,7,4,-0.4%
NC(=O)c1nn(-c2ccc(Cl)cc2Cl)c(=O)cc1O,-2,1.0,1.6,5,25,-0.5%
C/C(=C\c1ccco1)CN1CCN(Cc2ccc(C)o2)C(CCO)C1 (configuration not stated),-9,-0.8,-6.8,-6,0,-0.2%
CCOC(=O)c1[nH]ncc1CN1CCC(Cc2ccccc2)(C(=O)OCC)CC1,-22,0.6,-2.9,-2,1,1.5%
CN1C(c2ccccc2)CCOS1(=O)=O (configuration not stated),-4,-0.2,-1.5,7,.,0.6%
Cc1ccc2n(n1)c(=O)c(Cc1ccccc1)c([O-])[n+]2-c1ccccc1,9,-1.6,-4.0,4,2,-0.7%
CCN(Cc1ccncc1)C(=O)c1ccccc1NS(=O)(=O)c1ccc(F)cc1,4,-0.5,-0.2,57,-12,0.2%

# New compounds follow.
mol,D2 PAM,TRPML1 agonist,D2 ag,Six1-Eya2 blk,CtBP-E1A inh,PINK1 modulator
COCCn1c(SCC(=O)NC2CCCC2)nc2ccccc2c1=O,-27,-0.6,-4.7,0,20,2.8%
C=CCn1c(SCc2ccc(C(=O)Nc3ccccc3)cc2)nnc1-c1ccccc1,-2,3.9,-1.0,0,5,-2.4%[38.3 µM]
Cc1nn(C)c(C)c1S(=O)(=O)N(CC(=O)NCCCOC(C)C)c1ccc(C(C)C)cc1,-5,0.5,-1.2,3,10,-1.5%[38.3 µM]
O=C(O)c1ccc(CN2CCCCC2)o1,10,-0.3,0.3,-1,-6,.
O=C1c2ccccc2C(Nc2cccnc2)N1Cc1ccc2c(c1)OCO2 (configuration not stated),-10,0.2,-5.8,-2,3,0.6%
Cc1ccc(C)c2c1cc(C)c1nnc(SCC(=O)NCc3ccc4c(c3)OCO4)n12,-29,0.1,-4.7,-1,-2,0.4%
Cc1ccccc1-c1ccc(=O)n(CC(=O)Nc2ccc(-n3cnnn3)cc2)n1,-2,0.4,-1.1,-19,-7,0.0%
COc1ccc(CCNc2nc(Cl)nc(NC(C)(C)CO)n2)cc1OC,-3,1.6,0.8,-3,8,2.2%
Cc1cc2ccccc2nc1SCC(=O)N1CCCC1,-13,2.9,-4.2,-1,-1,0.9%[38.3 µM]
CCc1ccc(C2C3=C(CCCC3=O)OC3=C2C(=O)CCC3)cc1,-3,0.6,-4.1,8,-6,3.2%

# Taken from above.
# Value for Cc1cc2ccccc2nc1SCC(=O)N1CCCC1 in Six1-Eya2 blk: -1
# Value for CCc1ccc(C2C3=C(CCCC3=O)OC3=C2C(=O)CCC3)cc1 in D2 ag: -4.1

# Next section:
mol,D2 PAM,TRPML1 agonist,D2 ag,Six1-Eya2 blk,CtBP-E1A inh,PINK1 modulator
O=C(NCc1ccco1)C1CC(c2ccc(F)cc2)=NO1 (configuration not stated),0,1.1,7.6,3,3,2.6%
Nc1o[nH]c(=O)c1Cc1ccccc1,-7,-0.3,1.6,0,.,0.1%
CC[C@@]1(C(=O)OC)N[C@H](CN(C)S(=O)(=O)c2ccc(OC(F)(F)F)cc2)[C@@H]2C(=O)N(C)C(=O)[C@@H]21,3,-1.2,-0.6,7,0,-0.5%
O=C(CNc1ccc(Br)cc1)NNC1=NCCC1,-9,0.4,-2.3,0,3,9.2%
Cc1cc2nc(-c3ccco3)c(CC(C)(C)C)n2c(C)c1Br,-5,0.3,-2.6,1,-17,5.1%
COc1ccc(NC(=O)C2(C)CCN2Cc2ccccc2Cl)cc1OC (configuration not stated),2,-0.7,6.9,-14,-24,1.3%
CCn1cc(/C=C(\NC(=O)c2ccccc2F)C(=O)NCCN2CCOCC2)c2ccccc21,-9,1.5,0.9,-2,0,0.9%
Cc1ccc(C(O)c2nccn2C)o1 (configuration not stated),2,-0.1,-3.2,-2,5,0.6%[38.3 µM]
COc1c(C)cc(C(=O)C2CCCN(C(=O)c3ccoc3)C2)cc1C (configuration not stated),-1,-0.6,2.5,-4,7,0.0%
Cc1cccc(OCC(=O)Nc2nnc(-c3ccco3)s2)c1,-8,1.2,-2.2,-7,9,0.7%
CN(C(=O)c1cc2c(=O)n3ccccc3nc2s1)C1CCCCC1,12,-0.3,-0.1,15,11,2.4%
CC(C)(C)NC(=O)c1ccc2c(c1)N(CC(=O)NC1CCCC1)C(=O)C(C)(C)O2,-20,-0.5,-1.2,2,5,-0.3%
Nc1c(-c2ccccc2)c(CSc2nc3ccccc3[nH]2)nn1-c1cccc(Cl)c1,-24,3.7,3.7,-4,-2,-1.3%
Cc1cccc(NC(=O)CSc2nnc(-c3ccncc3)n2C)c1,-7,1.8,-1.1,5,-4,-1.2%
Cc1ccc(NC(=S)NC(=O)c2cncc(Br)c2)cc1Cl,-9,0.4,-0.9,-3,-5,6.4%
O=C(NCc1cccnc1)C(C(=O)c1ccc(F)cc1)n1ccccc1=O (configuration not stated),-7,0.3,-0.5,3,3,-1.7%[38.3 µM]
